Screens as filed in PubChem BioAssay.
FGF22 binding = binders of recombinant human FGF22 by thermal shift | Q9HCT0 | 340,000 tested, 1.5% active | calls only at 9.99 µM | SYPRO orange fluorescence; percent of sucrose octasulfate shift, DMSO zero;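 active means melting point raised past a set limit in the mean and every replicate; three in four hits are not shown here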
Target sequence (Q9HCT0 whole entry, looked up): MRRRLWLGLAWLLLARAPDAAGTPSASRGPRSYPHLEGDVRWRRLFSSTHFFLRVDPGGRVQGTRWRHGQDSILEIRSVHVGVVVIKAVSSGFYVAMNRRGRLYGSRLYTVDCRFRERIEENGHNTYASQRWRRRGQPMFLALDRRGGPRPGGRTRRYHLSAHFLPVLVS
MLL AF4-AF9 inh = blocks AF4 peptide binding to human AF9; P42568; AlphaScreen, biotin-AF4 peptide binding to FLAG-AF9; inhibition, % at 10 µM; 350,000 tested, 0.47% active;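 active means every replicate reaching a set inhibition limit, whatever the replicate mean, cut at about 25% in these data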;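 further: 0% = plate neutral control median and 100% = total signal loss; the record names both 10 and 1 µM as test concentration; the first replicate is given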
Target sequence (P42568 whole entry, looked up): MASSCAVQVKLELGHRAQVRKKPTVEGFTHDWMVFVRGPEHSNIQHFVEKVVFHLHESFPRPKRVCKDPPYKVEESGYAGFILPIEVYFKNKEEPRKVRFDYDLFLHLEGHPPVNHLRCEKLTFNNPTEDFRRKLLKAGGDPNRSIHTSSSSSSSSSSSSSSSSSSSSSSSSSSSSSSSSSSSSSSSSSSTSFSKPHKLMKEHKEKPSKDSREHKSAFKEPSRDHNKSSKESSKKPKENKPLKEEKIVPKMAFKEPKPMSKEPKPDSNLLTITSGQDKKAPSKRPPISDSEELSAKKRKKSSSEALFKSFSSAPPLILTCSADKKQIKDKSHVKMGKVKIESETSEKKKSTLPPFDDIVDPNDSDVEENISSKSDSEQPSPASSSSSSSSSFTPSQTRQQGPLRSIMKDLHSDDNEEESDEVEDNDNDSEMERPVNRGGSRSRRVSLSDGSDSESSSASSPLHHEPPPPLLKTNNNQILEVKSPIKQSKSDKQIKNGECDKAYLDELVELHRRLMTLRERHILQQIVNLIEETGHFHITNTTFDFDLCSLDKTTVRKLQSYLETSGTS
Starred values were filed as active, the others as inactive; i = inactive; + = active, no number; & = joins results of further samples. Some of the compounds tested (hit frequency here may not be typical).

| SMILES | FGF22 binding | MLL AF4-AF9 inh |
| --- | --- | --- |
| C[C@H](CO)N1C[C@H](C)[C@@H](CN(C)C(=O)NC2CCCCC2)OCCCC[C@H](C)Oc2ccc(NC(=O)CCCN(C)C)cc2C1=O | i | -0.6 |
| Cc1noc(C)c1S(=O)(=O)N(C)C[C@H]1Oc2ccc(NC(=O)Nc3ccc(F)cc3)cc2CC(=O)N([C@H](C)CO)C[C@@H]1C | i | -3.1 |
| C[C@@H]1CN([C@H](C)CO)C(=O)c2cccc(NC(=O)Nc3cccc4ccccc34)c2O[C@@H]1CN(C)Cc1ccncc1 | i | -2.4 |
| O=C(C[C@H]1C=C[C@H](NC(=O)Cc2ccccn2)[C@H](CO)O1)NCCc1ccncc1 | i | 0.2 |
| O=C(N[C@H]1CC[C@@H](CCn2cc(-c3cccnc3)nn2)O[C@@H]1CO)c1ccccc1F | i | 4.5 |
| C[C@@H]1CN([C@H](C)CO)C(=O)c2cc(NS(=O)(=O)c3cn(C)cn3)ccc2O[C@@H]1CN(C)Cc1ccc(C(=O)O)cc1 | i | -5.0 |
| COc1cccc(-c2ccc3c(c2)[C@@H]2[C@@H](CCN2S(=O)(=O)c2ccccc2F)[C@@H](CO)N3)c1 | i | 0.5 |
| COc1ccc2c3c([nH]c2c1)[C@@H](CO)N(Cc1ccc(F)cc1)CC31CN(Cc2ccccn2)C1 | i | 4.9 |

Filtered by structure: the entries above with an aryl methoxy group.
| SMILES | FGF22 binding | MLL AF4-AF9 inh |
| --- | --- | --- |
| COc1cccc(-c2ccc3c(c2)[C@@H]2[C@@H](CCN2S(=O)(=O)c2ccccc2F)[C@@H](CO)N3)c1 | i | 0.5 |
| COc1ccc2c3c([nH]c2c1)[C@@H](CO)N(Cc1ccc(F)cc1)CC31CN(Cc2ccccn2)C1 | i | 4.9 |

Later entries:
| SMILES | FGF22 binding | MLL AF4-AF9 inh |
| --- | --- | --- |
| CN(C)C(=O)[C@@]1(Cc2ccccc2N=[N+]=[N-])N=C(c2ccc(OCCCO)cc2)O[C@H]1c1ccccc1 | i | 3.6 |
| C[C@H](CO)N1C[C@H](C)[C@@H](CN(C)Cc2ccc(Cl)c(Cl)c2)Oc2ccc(NS(=O)(=O)c3cn(C)cn3)cc2C1=O | i | -0.9 |
| O=C(C[C@H]1CC[C@@H]2[C@H](COC[C@@H](O)CN2CCc2ccccc2)O1)NCCCN1CCOCC1 | i | 2.3 |
| Cc1noc(C)c1NC(=O)Nc1ccc2c(c1)C(=O)N([C@H](C)CO)C[C@H](C)[C@@H](CN(C)C(=O)C1CCCCC1)OCCCC[C@H](C)O2 | i | 1.4 |
| C[C@@H]1CCCCO[C@H](CN(C)C(=O)CCCN(C)C)[C@@H](C)CN([C@H](C)CO)C(=O)c2cc(NC(=O)Nc3ccccc3)ccc2O1 | i | 1.1 |
| C[C@H](CO)N1C[C@H](C)[C@@H](CN(C)C(=O)Nc2cccc3ccccc23)Oc2ccc(NC(=O)Nc3ccc(F)cc3)cc2C1=O | i | -0.5 |
| COc1ccc2c3c(n(C)c2c1)[C@@H](CO)N(Cc1ccccc1)CC31CCN(S(C)(=O)=O)CC1 | i | -1.5 |
| CNC[C@@H]1Oc2ncc(-c3cc4ccccc4o3)cc2C(=O)N([C@H](C)CO)C[C@@H]1C | i | 6.9 |
| C[C@H](NC(=O)C[C@@H]1CC[C@@H](NC(=O)C2CCOCC2)[C@H](CO)O1)c1ccccc1 | i | 0.5 |
| COCC(=O)N1[C@H](C#N)[C@@H](c2ccccc2-c2cccc(F)c2)[C@H]1CO | i | -1.5 |
| C[C@H]1CN([C@@H](C)CO)S(=O)(=O)c2ccc(C#CCN(C)C)cc2O[C@H]1CN(C)Cc1ccc(F)cc1 | i | 12 |
| CN1[C@@H]2c3ccc(C4=CCCC4)c(=O)n3C[C@H]1[C@H](CO)[C@H]2C(=O)N1CCCCC1 | i | 0.2 |
| C[C@@H]1CN([C@H](C)CO)C(=O)Cc2cc(NC(=O)Cc3cn(C)c4ccccc34)ccc2O[C@H]1CN(C)Cc1ccccc1 | i | -2.1 |
| CS(=O)(=O)N1CCCCN2[C@H](CO)[C@H](c3ccc(-c4cccc(C#N)c4)cc3)[C@@H]2C1 | i | -7.8 |
| COc1ccccc1-c1ccc2n(c1=O)C[C@H]1[C@H](CO)[C@@H](C(=O)N3CCCCC3)[C@@H]2N1CC1CC1 | i | -0.2 |
| C[C@@H]1CN([C@@H](C)CO)C(=O)c2c(c3ccccc3n2C)-c2ccccc2CO[C@@H]1CN(C)C(=O)c1ccncc1 | i | -1.3 |
| C[C@@H]1CN([C@@H](C)CO)C(=O)Cc2cc(NS(=O)(=O)c3cn(C)cn3)ccc2O[C@H]1CN(C)CC1CCCCC1 | i | 1.0 |
| CCNC(=O)C[C@@H]1CC[C@@H]2[C@@H](COc3ccc(NC(C)=O)cc3C(=O)N2C)O1 | i | -2.8 |
| C[C@H](CO)N1C[C@H](C)[C@H](CN(C)Cc2ccc(-c3ccccc3)cc2)Oc2c(NC(=O)c3nc4ccccc4s3)cccc2C1=O | i | 1.8 |
| CC=Cc1ccc2n(c1=O)C[C@@H]1[C@@H](CO)[C@H](C(=O)NCCC)N(C(=O)C3CCOCC3)[C@H]21 (mixture of isomers) | i | 1.2 |
| CCCNC(=O)C[C@H]1CC[C@@H]2[C@H](COC[C@@H](O)CN2CC2CCCCC2)O1 | i | -3.0 |
| CC(C)NC(=O)N1CC2(C1)[C@H](c1ccccc1)[C@@H](CO)N2C(=O)C1CCCC1 | i | -0.7 |
| Cc1ccccc1-c1ccc2c(c1)O[C@H](CN(C)C(=O)Nc1ccc(F)cc1)[C@H](C)CN([C@H](C)CO)S2(=O)=O | i | 1.3 |
| COc1ccc(NC(=O)Nc2ccc3c(c2)CC(=O)N([C@H](C)CO)C[C@@H](C)[C@@H](CN(C)C(=O)NC(C)C)O3)cc1 | i | -0.1 |
| Cc1noc(C)c1S(=O)(=O)Nc1ccc2c(c1)C(=O)N([C@@H](C)CO)C[C@H](C)[C@H](CN(C)Cc1ccc(Cl)c(Cl)c1)OCCCC[C@@H](C)O2 | i | 4.7 |
| OC[C@@H]1[C@H](c2ccc(-c3ccccc3)cc2)[C@H]2CN(CCC(F)(F)F)CCCCN12 | i | 11 |
| C[C@@H]1CN([C@H](C)CO)C(=O)c2cc(NS(=O)(=O)c3ccc(F)cc3)ccc2O[C@@H]1CN(C)CC1CCCCC1 | i | 0.2 |
| O=C(CN1CCOCC1)N[C@H]1CC[C@@H](CCn2cc(C3CC3)nn2)O[C@H]1CO | i | -0.6 |
| CO[C@@H]1CN(C)C(=O)c2cc(NC(=O)C3CC3)ccc2OC[C@@H](C)N(C(=O)Nc2ccc(C(F)(F)F)cc2)C[C@H]1C | i | 0.3 |
| O=C(C[C@@H]1CC[C@H]2[C@@H](COC[C@@H](O)CN2Cc2cccc(F)c2)O1)NCc1ccncc1 | i | -7.1 |
| CO[C@H]1CN(C)C(=O)c2cc(C#N)ccc2OC[C@@H]2O[C@H](CC[C@H]2OC)CCN(C)C(=O)[C@H]1C | i | -3.0 |
| COc1ccc(S(=O)(=O)Nc2ccc3c(c2)C(=O)N([C@@H](C)CO)C[C@@H](C)[C@H](CN(C)Cc2ccc4c(c2)OCO4)OCCCC[C@H](C)O3)cc1 | + | -5.4 |
| O=C(C[C@H]1CC[C@@H]2[C@H](COC[C@@H](O)CN2Cc2nccs2)O1)NCc1ccc(F)cc1 | i | -5.3 |
| CO[C@H]1CC[C@@H]2CCOc3c(C#N)cccc3C(=O)N(C)C[C@H](C)C(=O)N(C)C[C@@H]1O2 | i | -6.7 |
| C[C@@H]1CN([C@H](C)CO)C(=O)c2cccc(NC(=O)NC3CCCCC3)c2O[C@@H]1CN(C)S(=O)(=O)c1cn(C)cn1 | i | -3.3 |
| COc1ccc2c3c(n(C)c2c1)[C@H](CO)N(CC1CC1)CC31CN(C(=O)c2cccc(F)c2)C1 | i | -0.8 |
| Cc1noc(C)c1NC(=O)N(C)C[C@H]1OCCCC[C@@H](C)Oc2ccc(NS(=O)(=O)c3c(C)noc3C)cc2C(=O)N([C@@H](C)CO)C[C@H]1C | i | -0.6 |
| CCS(=O)(=O)Nc1ccc2c(c1)C(=O)N(C)C[C@@H](OC)[C@@H](C)CN(C(=O)NC(C)C)[C@H](C)CO2 | i | -1.4 |
| CO[C@H]1CN(C)C(=O)c2cc(NC(=O)c3cnccn3)ccc2OC[C@@H](C)N(CC2CC2)C[C@H]1C | i | 1.6 |
| CN(C)C(=O)c1ccc(-c2ccccc2[C@H]2[C@@H](C#N)N(C(=O)C3CCC3)[C@H]2CO)cc1 | i | -0.7 |

4 compounds drawn at random from those above:
| SMILES | FGF22 binding | MLL AF4-AF9 inh |
| --- | --- | --- |
| CO[C@H]1CN(C)C(=O)c2cc(NC(=O)c3cnccn3)ccc2OC[C@@H](C)N(CC2CC2)C[C@H]1C | i | 1.6 |
| CO[C@H]1CC[C@@H]2CCOc3c(C#N)cccc3C(=O)N(C)C[C@H](C)C(=O)N(C)C[C@@H]1O2 | i | -6.7 |
| C[C@@H]1CN([C@H](C)CO)C(=O)c2cccc(NC(=O)NC3CCCCC3)c2O[C@@H]1CN(C)S(=O)(=O)c1cn(C)cn1 | i | -3.3 |
| O=C(C[C@H]1CC[C@@H]2[C@H](COC[C@@H](O)CN2Cc2nccs2)O1)NCc1ccc(F)cc1 | i | -5.3 |

(list continues)
Molecule	FGF22 binding	MLL AF4-AF9 inh
Cc1noc(C)c1S(=O)(=O)N(C)C[C@@H]1OCCCC[C@H](C)Oc2ccc(NS(=O)(=O)c3ccccc3)cc2C(=O)N([C@@H](C)CO)C[C@H]1C	i	-4.9
C[C@@H]1CN([C@@H](C)CO)C(=O)c2cc(NC(=O)Nc3ccc(C(F)(F)F)cc3)ccc2O[C@H]1CN(C)S(C)(=O)=O	i	1.0
C/C=C/c1cccc(-c2nc(C(=O)NCc3ccncc3)cc3c2[C@@H](CCO)N([S@](=O)C(C)(C)C)C3)c1	i	5.0
O=C(C[C@H]1C[C@@H]2c3cc(NC(=O)c4cccnc4)ccc3O[C@@H]2[C@@H](CO)O1)NCC(F)(F)F	i	-0.8
O=C(Nc1ccc(Cl)cc1)N[C@H]1CC[C@H](CCNC(=O)c2ccccc2F)O[C@H]1CO	i	-8.0
CNC[C@H]1Oc2c(NC(=O)NC(C)C)cccc2C(=O)N([C@H](C)CO)C[C@H]1C	i	-1.7
O=C(C[C@H]1CC[C@@H](NC(=O)Nc2ccc(F)cc2)[C@H](CO)O1)NCc1cccc(F)c1	i	-1.2
CNC[C@@H]1Oc2ccc(NC(=O)Cn3cnnn3)cc2CC(=O)N([C@H](C)CO)C[C@@H]1C	i	-2.5
CCC(=O)N1C[C@H](C)[C@@H](OC)CN(C)C(=O)c2ccc(NS(C)(=O)=O)cc2OC[C@H]1C	i	-2.0
COc1cccc(-c2cnc3c(c2)C(=O)N([C@H](C)CO)C[C@H](C)[C@H](CN(C)S(=O)(=O)c2ccc(C)cc2)O3)c1	i	0.0
O=C(C[C@H]1CC[C@@H]2[C@H](COC[C@H](O)CN2S(=O)(=O)c2ccccc2)O1)N1CCOCC1	i	-12
C[C@H]1CN([C@@H](C)CO)C(=O)c2cc(Br)cnc2O[C@@H]1CN(C)Cc1cccc(C(=O)O)c1	i	-3.4
COc1ccc(-c2ccc([C@@H]3[C@H](C#N)N(C(=O)NC4CCCC4)[C@H]3CO)cc2)cc1	i	-11
CC(C)C#Cc1ccc([C@H]2[C@H](CO)N3CCCCN(CC4CC4)C[C@@H]23)cc1	i	4.9
C[C@H]1CCCCO[C@H](CN(C)C(=O)Nc2ccccc2)[C@@H](C)CN([C@@H](C)CO)C(=O)c2cc(NS(=O)(=O)c3ccc(Cl)cc3)ccc2O1	i	-2.0
O=C([C@@H]1[C@@H](CO)[C@@H]2Cn3c(ccc(-c4cccnc4)c3=O)[C@@H]2N1CCC(F)(F)F)N1CCOCC1	i	-3.2
O=C(NCc1cccc(F)c1)[C@@H]1[C@@H](CO)[C@@H]2Cn3c(ccc(-c4ccncc4)c3=O)[C@H]1N2CC1CC1	i	-2.4
COc1cccc(C#Cc2ccc([C@H]3[C@H]4CN(S(=O)(=O)c5ccccc5C)CC(=O)N4[C@H]3CO)cc2)c1	+	-2.5
CN(C)C(=O)[C@@H]1[C@@H](CO)[C@@H]2Cn3c(ccc(-c4cccc(F)c4)c3=O)[C@H]1N2Cc1ccccc1	i	-1.0
CO[C@@H](CN(C)C(=O)c1ccc2c(c1)OCO2)[C@@H](C)CN([C@@H](C)CO)S(=O)(=O)c1ccccc1	i	-0.6
C[C@@H]1CN([C@H](C)CO)C(=O)c2cc(Br)cnc2O[C@H]1CN(C)C(=O)c1ccc(F)cc1	i	13&-1.8&-0.9
CCC(=O)N1C[C@@H](C)[C@H](OC)CN(C)C(=O)c2cc(NC(=O)C3CCOCC3)ccc2OC[C@@H]1C	i	1.6
C[C@@H]1CN([C@H](C)CO)C(=O)c2cc(C#CC3CCCCC3)cnc2O[C@H]1CN(C)S(=O)(=O)c1ccc(F)cc1	i	-11
COc1ccc(NC(=O)Nc2ccc3c(c2)C(=O)N([C@@H](C)CO)C[C@H](C)[C@@H](CN(C)C(=O)NC2CCCCC2)OCCCC[C@H](C)O3)cc1	i	-0.6
CC(C)NC(=O)N(C)C[C@@H]1Oc2c(NC(=O)Nc3cccc4ccccc34)cccc2C(=O)N([C@H](C)CO)C[C@@H]1C	i	2.7
COCCNC(=O)[C@H]1[C@H](CO)[C@H]2Cn3c(cccc3=O)[C@@H]1N2Cc1cccc(Cl)c1	i	0.9
C/C=C/c1ccc2c(c1)O[C@@H](CN(C)C(=O)Cc1ccccc1)[C@@H](C)CN([C@@H](C)CO)S2(=O)=O	i	4.3
C[C@H](CO)N1C[C@H](C)[C@@H](CN(C)Cc2ccc(-c3ccccc3)cc2)Oc2ccc(NC(=O)Cc3cn(C)c4ccccc34)cc2CC1=O	i	3.0
